S aureus helic: blocks Staphylococcus aureus DNA helicase; purified S. aureus helicase, fluorescence unwinding assay; about half of the hits fall short of the stated cut; 120,000 compounds, 0.05% hits; inhibition, %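 (tested at about 80 µM)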;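 active = both duplicates at 50% or more, or one of them with a favoured structure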;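 note: 0% = mean of negative control wells and 100% = mean of positive control wells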
MgrA DNA FP: S. aureus MgrA-DNA binding modulation; inhibition, %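 (about 10 µg/mL by stock and volumes)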; fluorescence polarization; AID 602314; 84,000 compounds, 0.13% hits;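 active = above 50% in either of two replicates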;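 note: 0% = protein plus DNA without compound and 100% = DNA alone without protein; higher means less MgrA bound to DNA so lower polarization; one replicate is shown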
Active calls of the source: *; . = not tested or not shown; & = joins results of further samples. A portion of the library, so the mix of outcomes need not match the whole.

smiles,S aureus helic,MgrA DNA FP
O=C(O)CCc1ccc(-c2ccc(F)cc2)[nH]1,10,-1.2
O=C(N/N=C/c1ccccc1Cl)N/N=C/c1ccccc1Cl,.,2.3
CSc1ccc(C2C(C#N)=C(N)Oc3c2ccc(=O)c2c(C)oc(C)c32)cc1 (stereo unspecified),-41,.
O=C(CCCSc1nc2ccccc2[nH]1)NCc1ccco1,32,.
Cc1cc(C)cc(NC(=O)C2CCCC2)c1,8,.
COC(=O)C(C(=O)OC)C1(C)CCC(OC)C1(C)C (stereo unspecified),24,.
C(=Nc1nc2ccccc2nc1N1CCCC1)N1CCOCC1,-2,.
COC(=O)c1cn(NC(=O)C2CCCO2)c(=O)c2ccccc12 (stereo unspecified),7,-1.8

smiles,S aureus helic,MgrA DNA FP
COc1ccc(C(=O)NC(c2c(C)[nH]n(-c3ccccc3)c2=O)(C(F)(F)F)C(F)(F)F)cc1,4,-0.6
CCC1(C)C2CCC1(C)C(NC(=O)c1ccccc1)(C(=O)O)C2 (stereo unspecified),17,.
c1ccc(CCn2c(Cc3cccs3)nc3ccccc32)cc1,-14,.
CCCCCN1C(C)=CC(=C(C#N)C#N)C=C1C,-8,.
CC(C)(C)C1(C)OC(CO)C(CO)O1 (stereo unspecified),1,0.5
Cc1ccc(NCc2n[nH]c(=S)n2C)cc1Cl,-1,0.6
N#CC(C#N)=C(N)/C(C#N)=C/c1ccc(-c2cccc(C(=O)O)c2)o1,21,4.7
CC1(C)Cc2cccc(OCC(=O)NCc3ccc4c(c3)OCO4)c2O1,-11,.

smiles,S aureus helic,MgrA DNA FP
COC(=O)c1ccccc1S(=O)(=O)NC(=O)Nc1nc(C)c2c(n1)CCS(=O)(=O)C2,.,-2.0
CCNC(=O)C1CCN(c2nc3c(C)cc(C)cc3s2)CC1,-3,8.4
O=C1c2ccccc2C(=O)N1CC1=NCCc2ccccc21,3,.
O=C(CN1CC(=O)Nc2ccccc21)NCCc1ccc(Cl)cc1,-11,.
O=C(Nc1cc(Oc2cccnc2)cc([N+](=O)[O-])c1)c1cc2nc(-c3ccco3)cc(C(F)(F)F)n2n1,.,4.0
CCc1ccc(Oc2coc3cc(OC(=O)c4ccco4)ccc3c2=O)cc1,5,2.7
CN(CCc1ccccn1)C(=O)Nc1cc(Cl)cc(Cl)c1,-37,.
Cc1ccc2c(c1)sc(=NC(=O)c1cccs1)n2C,-11,.

smiles,S aureus helic,MgrA DNA FP
COC(=O)c1sccc1NS(=O)(=O)c1cccc2nsnc12,.,0.2
COC(=O)Cn1c(O)c(N=NC(=O)c2ccc3ccccc3c2O)c2ccccc21,21,.
O=P(c1ccccc1)(c1ccccc1)C1CCS(=O)(=O)C1 (stereo unspecified),-14,.
CCCc1cc(-c2nc(-c3ccc(Br)cc3)cs2)ccn1,7,-1.7
O=C1/C(=C/c2cccs2)SC(=S)N1/N=C/c1cccs1,-5,5.2
O=c1oc2ccccc2cc1-c1cn2ccccc2n1,4,-4.3
Cc1ccc(S(=O)(=O)NCCN=Cc2ccc(N(C)C)cc2)cc1,14,-4.8
COc1ccc(OC)c(C(O)CNC(=O)CN)c1 (stereo unspecified),.,0.5&-0.6

smiles,S aureus helic,MgrA DNA FP
CC(C)(C)c1cnnn1-c1ccc(NC(=O)COc2ccccc2)cc1,7,.
CCN1CCN(S(=O)(=O)c2cccs2)CC1,19,.
CCc1c(C(=O)OC)nn(-c2ccc(OC)cc2)c(=O)c1C#N,-9,.
COC(=O)C1=CN(c2ccc(F)cc2)C=C(C(=O)OC)C1c1cccs1,-4,-2.5
COc1ccc(CCNC(=O)CCCc2cn(C)c3ccccc23)cc1OC,5,0.3
CN(Cc1ccccc1)C(=O)COc1ncnc2ccccc12,12,0.4
O=C(Cn1c(=O)sc2ccccc21)Nc1ccc(O)cc1,8,-2.6
O=C(c1cccc(NS(=O)(=O)c2ccc(F)c3ccccc23)c1)N1CCOCC1,3,-2.4

4 of the compounds above, with each value named:
> CCc1c(C(=O)OC)nn(-c2ccc(OC)cc2)c(=O)c1C#N
  S aureus helic: -9; MgrA DNA FP: .
> COC(=O)C1=CN(c2ccc(F)cc2)C=C(C(=O)OC)C1c1cccs1
  S aureus helic: -4; MgrA DNA FP: -2.5
> COc1ccc(CCNC(=O)CCCc2cn(C)c3ccccc23)cc1OC
  S aureus helic: 5; MgrA DNA FP: 0.3
> CN(Cc1ccccc1)C(=O)COc1ncnc2ccccc12
  S aureus helic: 12; MgrA DNA FP: 0.4

Next part.
smiles,S aureus helic,MgrA DNA FP
CC1(C)CC(=O)C(C=Nc2ccc(S(=O)(=O)Nc3nccs3)cc2)=C(O)C1,-8,.
CC1CC(C)CN(C(=O)c2ccc3ncsc3c2)C1 (stereo unspecified),2,.
CCOC(=O)c1c(C)n(-c2ccccc2)c2c1cc(OC(=O)c1ccc(Cl)cc1)c1ccccc12,.,-0.2
Cc1cccc(OCC(O)CN2CCN(Cc3ccccc3)CC2)c1C (stereo unspecified),10,.
CCN(C(=O)c1cccs1)c1cccc2ccccc12,.,-1.8
COc1ccc(C2Nc3ccc(C(=O)c4ccccc4)cc3NC3=C2C(=O)CC(C)(C)C3)c(OC)c1 (stereo unspecified),.,-1.5
N#CC(C(=O)c1cccs1)=C1SCCCS1,.,1.1
O=C(O)c1ccccc1SCCS(=O)(=O)c1cccc(C(F)(F)F)c1,.,-3.0

smiles,S aureus helic,MgrA DNA FP
Cc1nc(CSc2nnc(-c3c[nH]c4ccccc34)o2)cs1,-8,.
COc1ccc(-c2c(C#N)c(N)nc3sc(C(=O)c4ccc(Cl)cc4)c(N)c23)cc1OC,.,4.0
O=C(Nc1cccc(C(F)(F)F)c1)c1cccnc1NCCO,-3,-1.6
CC(C)(C)C1CCc2onc(C(=O)Nc3cccc(O)c3)c2C1 (stereo unspecified),-33,.
COc1ccc(C2C(C(=O)N3CCN(c4ccccc4)CC3)c3ccccc3C(=O)N2C)cc1 (stereo unspecified),8,.
Cc1ccn(CO)n1,-5,.
COc1ccc(-c2nc3ccsc3c(=O)o2)cc1,2,-0.6
CC(=O)N1CCC(C(=O)Nc2ccc3nc(C)ccc3c2)CC1,.,0.4

smiles,S aureus helic,MgrA DNA FP
NC1=Nc2cc(C(=O)O)ccc2Sc2ccccc21,11,.
Cc1cccc(/C=C2/Oc3ccccc3N(CC(=O)N3CCC4(CC3)OCCO4)C2=O)c1,8,1.9
COc1ccc(-c2nc(N)nc(C(F)(F)F)c2-c2cscn2)c(O)c1,.,-3.4
O=C(CSc1nc2ccccc2o1)N1CCCC1,11,.
COCc1c(C(=O)Nc2cc(C)cc(C)c2)oc2ccccc12,7,.
CCc1cc2[nH]c(C(=O)OC)cc2s1,13,0.3
Nc1n[nH]c2cc(=O)[nH]c(O)c12,-50,.
O=C(NCC1CCCN2CCCCC12)c1cccc(Br)c1 (stereo unspecified),8,-3.1

smiles,S aureus helic,MgrA DNA FP
S=C(Nc1ccccc1)Nc1ccccn1,18,0.8
COc1ccc2c(C)cc(-n3nc(C)cc3C)nc2c1,13,.
NS(=O)(=O)c1ccc(CCNC(=O)CCc2nc3sc4c(c3c(=O)[nH]2)CCCC4)cc1,9,.
O=C(CSc1nc2ccccc2o1)N(Cc1cccs1)c1ccc2c(c1)OCCO2,2,.
Cc1ccc2nc(NCC(C)c3ccccc3)c3nnnn3c2c1 (stereo unspecified),-87,.
CCN(CC)S(=O)(=O)c1cccc(S(=O)(=O)c2ccc(Cl)c(S(=O)(=O)N(CC)CC)c2)c1,-37,.
CCC(=O)c1c(C)c(C)c(C)c(C)c1C,.,2.8
Cc1ccc(S(=O)(=O)CCSc2nc(C)cc(C)c2C#N)cc1,2,2.1

mol	S aureus helic	MgrA DNA FP
COc1ccccc1NC(=O)/C=N/O	.	-4.7
COc1ccccc1N=C(N)Nc1cccc(C(F)(F)F)c1	-16	.
N=C1C(c2nc3ccccc3s2)=C(O)CN1c1ccccc1	-3	-2.9
CC1CCCCC1NC(=O)Cn1cnc2ccccc2c1=O (stereo unspecified)	2	.
C/C(N)=C(/C#N)C(=O)CSc1ncccn1	7	.
O=C1C=CC(=O)N1c1ccc(N2CCOCC2)cc1	16	11
O=C(c1ccc(COc2cccc3ccccc23)cc1)N1CCCCC1	2	1.4
Cc1c[n+]([O-])n(-c2ccc(C(=O)O)cc2)n1	9	-5.4

mol	S aureus helic	MgrA DNA FP
COc1ccc(OC(=O)C=C(C)C)cc1	18	-1.0
CC1CCN(CC(O)COc2ccccc2Br)CC1 (stereo unspecified)	23	.
O=C(Nc1c2c(nn1-c1ccccc1)CS(=O)C2)c1cccs1 (stereo unspecified)	2	.
Cc1nnc(SCC2=C(C(=O)O)N3C(=O)[C@@H](NC(=O)Cn4cnnn4)[C@H]3SC2)s1	.	3.2&1.4
C/C(=N\NC(N)=S)c1ccc(Br)cc1	.	11
CCCN1CCN(CCCNC(=O)c2cc3c(s2)-c2ccccc2S(=O)(=O)C3)CC1	5	-3.0
O=C(O)c1cccc(OCc2cn3ccccc3n2)c1	-14	.
CCOC(=O)N1CCN(c2c(-c3ccccc3)c3cc(Cl)ccc3[nH]c2=O)CC1	-3	0.3

Whole records from above:
Results for `CCOC(=O)N1CCN(c2c(-c3ccccc3)c3cc(Cl)ccc3[nH]c2=O)CC1` → S aureus helic = -3; MgrA DNA FP = 0.3
Results for `CCCN1CCN(CCCNC(=O)c2cc3c(s2)-c2ccccc2S(=O)(=O)C3)CC1` → S aureus helic = 5; MgrA DNA FP = -3.0
Results for `Cc1nnc(SCC2=C(C(=O)O)N3C(=O)[C@@H](NC(=O)Cn4cnnn4)[C@H]3SC2)s1` → S aureus helic = .; MgrA DNA FP = 3.2&1.4

Next part
mol	S aureus helic	MgrA DNA FP
Cc1ccc(OCC(=O)NC(C)C(=O)O)cc1 (stereo unspecified)	-13	.
COC(=O)/C=C/c1cn(-c2ccccc2)nc1-c1ccc(F)cc1	18	0.9
O=C1c2ccccc2NC2(CCCCC2)N1N=C1CCCCC1	4	3.0
O=C(N/N=C/c1cccnc1)C1=NNC(=O)C1CCO (stereo unspecified)	10	.
CN1C(C(=O)Nc2ccc(F)cc2F)=CC(c2ccc(F)cc2)=NS1(=O)=O	-4	0.5
CN(C)C(=O)CSc1cnc2ccccc2n1	.	3.2
Cc1ccc(Cl)cc1NC(=O)CSc1nc2c(oc3ccccc32)c(=O)n1C1CCCC1	7	.
O=C1NC(=NCc2ccccc2)S/C1=C\c1ccc(Cl)cc1	-16	0.6

mol	S aureus helic	MgrA DNA FP
O=C(Nc1ccc(Br)cc1F)C1CCCN(S(=O)(=O)N2CCC3(CC2)OCCO3)C1 (stereo unspecified)	-15	.
CC(=O)Nc1nc2c(s1)C(=O)NCC(C)(C)C2	.	2.8
CC(C)CC(N)c1ccccc1 (stereo unspecified)	-9	.
COC(=O)C1=C(C)OC(N)=C(C#N)C1c1ccccc1I (stereo unspecified)	.	4.8
CN(C)c1ccc(C(=S)N2CCN(c3cccc(Cl)c3)CC2)cc1	-7	.
C=CCN(C#N)c1nc(N(C)C)nc(N(C)C)n1	-2	1.9
O=C(Nc1nc(-c2cccs2)cs1)C1CC(=O)N(C2CCCC2)C1 (stereo unspecified)	5	.
Cc1cc(-n2c(C)cc(CNC(C)C(O)c3ccc(O)cc3)c2C)no1 (stereo unspecified)	6	.

mol	S aureus helic	MgrA DNA FP
O=C(Nc1ccc2ccccc2n1)c1cccs1	.	1.0
CCCc1nn2c(=O)cc(COc3ccc(C)cc3)nc2s1	19	.
CCN(CC)S(=O)(=O)c1ccc2[nH]c(=O)cc(C(=O)Nc3ccccc3N3CCN(C)CC3)c2c1	-13	.
COc1ccc(N2CCN(CCNC(=O)c3nnc(Cc4c(F)cccc4Cl)o3)CC2)cc1	18	.
COc1cccc(NC(=O)CC2CCCCC2)c1	5	1.2
O=C(Nc1ccc(O)c(-c2nc3ccccc3s2)c1)c1cc2cc([N+](=O)[O-])ccc2s1	.	3.8
Cc1ccc(Nc2nc(Nc3ccc(C)cc3)nc(N3CCCCC3)n2)cc1	10	-0.1
Cc1nc(Cl)c(Cc2ccccc2)c(N2CCCC2)n1	-1	-3.0

mol	S aureus helic	MgrA DNA FP
CC(C)C(=O)NCCc1nc(-c2ccccc2Cl)no1	6	-2.0
Cc1ccc(NNC(=S)NC2CCCCC2)cc1	-4	.
O=C(O/N=C/c1ccc(F)c(Cl)c1)C1CC1	5	.
CC1CN(C(=O)c2cc3cc(Br)ccc3oc2=O)CC(C)O1 (stereo unspecified)	-24	.
CN(CC(COc1ccccc1)OC(=O)c1ccc(Cl)cc1)C1=NS(=O)(=O)c2ccccc21 (stereo unspecified)	5	-4.0
CCn1cc(C(=O)NCCC(C)C)c2cc(OC)c(OC)cc2c1=O	16	-2.9
COc1ccc(NS(=O)(=O)c2cccc3cccnc23)c(OC)c1	1	.
Cc1cc(C)c2c(n1)sc1c(N3CCN(c4ccccc4)CC3)ncnc12	15	.
CCOc1ccccc1CNC(=O)CCc1cn(CC)c2ccccc12	-4	1.1
CC1(C)CC2(CCCCC2)C(=O)O1	.	1.2
O=C(O)CSCC(=O)N1CCn2c3c(c4cc(C5CCCCC5)ccc42)CCCC31 (stereo unspecified)	8	2.8

In another format: entries from further up
Value order: S aureus helic	MgrA DNA FP
CC(C)C(=O)NCCc1nc(-c2ccccc2Cl)no1
    6	-2.0
Cc1ccc(NNC(=S)NC2CCCCC2)cc1
    -4	.
O=C(O/N=C/c1ccc(F)c(Cl)c1)C1CC1
    5	.
CC1CN(C(=O)c2cc3cc(Br)ccc3oc2=O)CC(C)O1 (stereo unspecified)
    -24	.
